TRPML1 inh: human mucolipin-1 channel inhibition; TRPML1-inducible cells, Ca2+ dye fluorescence, FDSS; hits give low values; inhibition of EC80 agonist-evoked calcium signal; activity change, negative = inhibition, % (concentration not given with the values); actives 0.02% (n = 390,000); in the data active means activity change below about -50%; inconclusive means about -30% to -50%; inactive means above about -30%;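 also: stimulus is agonist 54-4 at its EC80 concentration; % is scaled to controls: 0 for no effect and ±100 for the full control effect; compound concentration not given in the record; the text of the record puts the active cut at -80%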
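TRPML1-DL cells, Tet-induced overnight (~16 h, 37 °C) at 1,500 cells/well, were loaded with Ca8 no-wash dye plus quencher for 45-90 min at room temperature. Compounds were pinned during FDSS kinetic reading; agonist 54-4 at EC80 (4 uM final) then added.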
D2 agonist: activates the human D2 dopamine receptor; P14416; DiscoveRx PathHunter D2 beta-arrestin, luminescence, 90 min; 100% = 57 uM dopamine signal; activation, % (concentration not given with the values); actives 0.084% (n = 360,000); in the data active = activation above about 40%; inconclusive = about 15% to 40%; inactive = below about 15%; also: compound concentration not given in the record; the text of the record calls up to 30% inactive
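DiscoveRx PathHunter D2 beta-arrestin cells (2,100/well) attached overnight, then compound-stimulated 90 min at 37 C in HBSS/10 mM HEPES/0.1% Tween-20 buffer; beta-galactosidase complementation read by luminescence after 1 h at ambient temperature. Dopamine 57 uM final (EC100) as control.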
TRPML1 agonist: agonists of human TRPML1 channel; Q9GZU1; activation, % (concentration not given with the values); actives 0.12% (n = 410,000); TRPML1-expressing cells, Ca2+ dye fluorescence, FDSS; host cell line not named in the record; reference of the full effect not given here; in the data active = activation above about 50%; inconclusive = about 30% to 50%; inactive = below about 30%; also: 0% is about no effect; the text of the record puts the active cut at 80%
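Calcium fluorescence on an FDSS kinetic reader gave the read-out. Tet-induced TRPML1-DL cells were plated overnight, dye-loaded (Ca8 with quencher, 45-90 min, room temperature, dark), then read 110 s after compound addition, and again 110 s after 4uM final 54-4 (EC80).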
Six1-Eya2 inh: inhibitors of human Six1/Eya2 interaction; Q15475+O00167; AlphaScreen GST-Six1/His-Eya2 binding, biochemical; hits give low values; control for the full effect not named in the record; activity change, % (test concentration not listed); actives 0.56% (n = 360,000); AID 651725; in the data active = activity change below about -65%; inconclusive = about -30% to -65%; inactive = above about -30%; also: % is scaled to controls: 0 for no effect and ±100 for the full control effect; compound concentration not given in the record
Target sequence (O00167 whole entry, looked up): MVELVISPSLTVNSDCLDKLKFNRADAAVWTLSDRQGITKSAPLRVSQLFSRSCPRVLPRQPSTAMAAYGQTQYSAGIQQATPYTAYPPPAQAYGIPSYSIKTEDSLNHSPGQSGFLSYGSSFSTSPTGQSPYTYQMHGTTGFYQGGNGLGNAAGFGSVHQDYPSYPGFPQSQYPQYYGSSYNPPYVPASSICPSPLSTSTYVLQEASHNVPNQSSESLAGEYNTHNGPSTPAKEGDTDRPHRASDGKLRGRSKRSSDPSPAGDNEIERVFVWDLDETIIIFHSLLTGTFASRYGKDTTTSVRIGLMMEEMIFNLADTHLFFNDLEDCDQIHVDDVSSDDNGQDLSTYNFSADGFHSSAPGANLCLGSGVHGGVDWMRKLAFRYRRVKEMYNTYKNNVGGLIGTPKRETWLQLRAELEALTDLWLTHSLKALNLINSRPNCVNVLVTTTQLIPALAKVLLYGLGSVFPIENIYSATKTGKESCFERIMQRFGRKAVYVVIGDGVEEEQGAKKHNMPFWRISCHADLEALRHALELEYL
Target sequence (Q15475 whole entry, looked up): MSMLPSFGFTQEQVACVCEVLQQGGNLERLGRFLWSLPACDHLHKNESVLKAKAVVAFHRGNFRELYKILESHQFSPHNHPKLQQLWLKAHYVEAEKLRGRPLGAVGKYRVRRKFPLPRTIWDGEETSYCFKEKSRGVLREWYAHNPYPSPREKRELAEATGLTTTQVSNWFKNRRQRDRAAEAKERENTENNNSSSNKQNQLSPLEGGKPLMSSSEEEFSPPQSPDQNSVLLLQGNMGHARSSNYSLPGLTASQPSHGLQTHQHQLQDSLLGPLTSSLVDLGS
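Homogeneous AlphaScreen proximity assay pairing GST-Six1 with His-tagged Eya2 (added as 5X mix: 250 nM and 500 nM) in 50 mM Tris pH 8.0, 300 mM NaCl, 1 mM TCEP. Glutathione donor and nickel acceptor beads; 1 h, 37 °C, dark.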
PINK1 expr mod: modulators of PINK1 expression. actives 0.2% (n = 410,000). PINK1 immunofluorescence, high-content cytometry, 24 h. AID 624263. Potency, µM (doses to about 76.6 µM), for the others: top-dose activation (PINK1 increase), hits mostly activators; active = well fitted activation curve with a large enough effect; inconclusive = small, poorly fitted or top-dose-only effect; inactive = flat fitted curve, though single readings scatter; cell line not stated here;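 also: potency is read from the fitted curve at half-maximal effect; % of control where 0% means no effect; nearly all actives have a fitted effect of over 65% in size; a mitochondrial uncoupler was the plate control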
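PINK1 protein level read as immunofluorescence by microplate cytometer in a fixed, stained stable cell line after 24 h exposure to five compound concentrations, with CCCP as control.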
CtBP-E1A blk: inhibitors of CtBP/E1A interaction; AlphaScreen GST-E1A/His-CtBP binding, 1536-well; hits give low values; control for the full effect not named in the record; activity change, % (concentration not given with the values); actives 0.49% (n = 340,000); AID 651724; in the data active means activity change below about -65%; inconclusive means about -30% to -65%; inactive means above about -30%; also: % is scaled to controls: 0 for no effect and ±100 for the full control effect
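Steps: dispense buffer (Tris pH 8.0, NaCl 300 mM, TCEP 1 mM, BSA, Tween 20); add 5X protein mix (GST-E1A, His-CtBP, 125 nM each); pin 23 nL compound; 2 h at 37 °C, dark; add 5X beads (50 ug/mL); 1 h; read.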
* marks the source's active call; other numbers are inactive results; ? = inconclusive; . = no result given; & = joins results of further samples; [ ] = another dose, or the depositor's remark.

Order of values – TRPML1 inh | D2 agonist | TRPML1 agonist | Six1-Eya2 inh | PINK1 expr mod | CtBP-E1A blk
> Cc1cccc(NC(=O)C2CCCN(S(=O)(=O)c3c(C)nn(C)c3C)C2)c1 (centres undefined)
  -9 | -1.9 | 0.0 | -3 | -0.8% | -2
> COc1ccc([N+](=O)[O-])cc1/C=N/Nc1nn[nH]n1
  8 | -5.2 | -0.8 | -8 | -0.3% | -28
> CC(=O)n1cc([C@H]2C=C(C(=O)NCc3ccccc3)O[C@@H](OCc3ccc(CO)cc3)C2)c2ccccc21
  -3 | 9.1 | -0.3 | -6 | 2.6% | -4
> CC(=O)Nc1ccc(NC(=O)C2CCN(C(=O)C3CC(=O)N(c4ccc(C)cc4)C3)CC2)cc1 (centres undefined)
  -18 | -2.2 | 0.5 | -6 | -3.2% | -18
> CN1OC[C@@H]2CN[C@H](c3cccc(Oc4ccccc4)c3)C[C@@H]21
  13 | -9.2 | -0.3 | 0 | 1.3% | 4
> O=S(=O)(c1ccc(Cl)cc1)c1cnc2ccccc2n1
  7 | -2.1 | -0.3 | -18 | -2.2% | -12
> CCOC(=O)N1CCC(N2C(=O)c3ccccc3C2Nc2ccc(Cl)cn2)CC1 (centres undefined)
  -6 | -0.7 | 0.6 | 2 | 1.0% | 4
> O=C1c2cc(F)ccc2-n2c1nc1ccccc1c2=O
  16 | -8.9 | -0.1 | -6 | 0.9% | -8
> CCN(CC)C(=O)CN(c1cc2c(cc1OC)oc1ccccc12)S(=O)(=O)c1ccc(C)cc1
  -3 | -4.9 | -0.5 | -14 | 1.7% | -15
> CCOc1ccc(C2c3[nH]c4ccccc4c3C[C@H]3C(=O)N(C4CCN(Cc5ccccc5)CC4)CC(=O)N23)cc1OC (some centres undefined)
  27 | -3.7 | -0.1 | -24 | 1.9% | .
> C=CCOC(=O)/C(=C/c1cccnc1)NC(=O)c1ccccc1
  9 | -2.7 | 1.5 | -1 | 0.8% | .
> CC(=O)c1ccc(NC(=O)CN2C(=O)/C(=C/C=C/c3ccccc3)SC2=S)cc1
  28 | -2.3 | 2.3 | -16 | 12% | 1
> CS(=O)(=O)c1cccc(C(=O)N(CCc2ccccc2)Cc2cccs2)c1
  -2 | -0.8 | 1.3 | -2 | -0.5% | -1
> O=C(CCNC(=O)c1ccc(Cl)cc1)NCc1cccc(C(F)(F)F)c1
  -1 | -1.8 | 4.2 | -6 | 3.0% | 11
> COC(=O)Cc1ccc(Oc2ncc(C(F)(F)F)cc2Cl)cc1
  10 | 1.1 | 2.8 | 16 | -0.9% | 0

Order of values – TRPML1 inh | D2 agonist | TRPML1 agonist | Six1-Eya2 inh | PINK1 expr mod | CtBP-E1A blk
> Cn1nc(-c2ccccc2)c(CO)c1Oc1cccc(C(F)(F)F)c1
  4 | -2.6 | 3.6 | 2 | 1.4% | 11
> Cc1cc(-c2ccc(S(=O)(=O)Nc3cccc(Cl)c3C)cc2)on1
  3 | . | 0.2 | . | 9.2% | .
> CCOC(=O)c1ccccc1NC(=O)COc1coc(CN2CCc3ccccc32)cc1=O
  12 | 4.2 | 3.9 | -28 | -0.3% | -20
> O=C1OC(c2cccc3c(F)cccc23)c2ccccc21 (centres undefined)
  5 | -5.4 | 3.1 | 8 | 5.6% | -1
> CCn1nnnc1NC(=O)c1cc(OC)c(OC)c(OC)c1
  1 | -1.6 | 0.3 | -5 | 3.2% | 3
> COCCOC(=O)c1c(C)n(C)c2ccc(OC(=O)c3c(OC)cccc3OC)cc12
  16 | -5.9 | 0.5 | -20 | 3.4% | .
> COc1ccc(OC)c(Nc2cc(C)c3ccccc3n2)c1
  -29 | -3.8 | -0.5 | -14 | 6.7% | .
> COc1ccc(C(CC(=O)N2CCCCC2)NC(=O)C(F)(F)F)cc1 (centres undefined)
  -9 | -6.0 | 0.2 | -6 | 1.3% | -1
> COc1ccc(NC(=O)C2CCC(CNS(=O)(=O)c3cccs3)CC2)cc1 (centres undefined)
  4 | -0.6 | 1.8 | -2 | -0.2% | -11
> Cc1cccc(N(CC(=O)N/N=C/c2ccccc2C(=O)O)S(C)(=O)=O)c1C
  3 | -0.8 | -0.4 | 8 | -0.5% | .
> O=C(c1cc(F)ccc1F)C1CCCN(C(=O)c2ccco2)C1 (centres undefined)
  -5 | 0.9 | 0.7 | -1 | -0.4% | 3
> CCCCNC(=O)c1ccc2c(c1)ncn2-c1cc(OC)ccc1OC
  7 | . | 1.0 | . | 3.6% | .
> Brc1ccc(/C=N/Nc2ccccc2)cc1
  -26 | -9.7 | -0.4 | 2 | 8.4% | -8
> CCCOc1ccc(C(=O)CCN2CCCCC2)cc1
  -10 | -2.7 | 7.0 | -3 | 2.6% | 0
> CCC(C)(C)c1ccc(Oc2ccc(N)cc2)cc1
  12 | -0.2 | 1.9 | -16 | 11% | 3

Order of values – TRPML1 inh | D2 agonist | TRPML1 agonist | Six1-Eya2 inh | PINK1 expr mod | CtBP-E1A blk
> CC(Oc1ccc2c(-c3ccccc3)cc(=O)oc2c1)C(=O)NCC1CCC(C(=O)O)CC1 (centres undefined)
  -9 | -4.5&-1.7 | 0.4 | -5&-7 | -0.7%&0.4% | -9&-5
> COCc1cc(C)[nH]c(=O)c1C#N
  4 | -1.0 | -0.1 | -9 | 4.9% | -2
> N#Cc1nc(COc2ccccc2)oc1N1CCC(Cc2ccccc2)CC1
  22 | -0.5 | 6.9 | -24 | 1.9% | -22
> O=C1NCCCC1C(=O)N1CCCCC1 (centres undefined)
  11 | 1.4 | -0.1 | -4 | 0.6% | 15
> N#C/C(=C/c1ccc(N2CCOCC2)o1)C(=O)Nc1ccccc1
  -17 | 0.3 | 83* | -10 | ? | -20
> CC(=O)c1cccc(NC(=O)CCn2c(=S)oc3ccccc32)c1
  -9 | 3.5 | 1.2 | 3 | 11% | 8
> CC(=O)c1ccc(OCC(=O)NC2CCCN(Cc3ccccc3F)C2)cc1 (centres undefined)
  13 | -1.1 | -0.2 | 3 | -1.3% | .
> COc1ccc(C(=O)N/N=C/c2ccc3cccc(OCc4ccccc4)c3n2)cc1
  16 | -4.0 | 1.2 | -4 | -0.6% | -4
> CCN1CCN(CC(=O)Nc2cc(C(F)(F)F)ccc2OCCOC)CC1
  4 | -2.2 | -0.4 | 10 | 1.6% | 7
> N#C/C(=C\c1cccn1S(=O)(=O)c1ccccc1)S(=O)(=O)c1ccc(F)cc1
  77 | -0.3 | 0.0 | -13 | 0.7% | -16
> O=C1C(Cl)=C(N2CCOCC2)C(=O)N1CCc1ccccc1
  9 | -0.2 | -0.2 | 33 | -0.3% | 13
> COc1ccc(C2CC(c3cccs3)=Nc3ccccc3S2)cc1OC (centres undefined)
  21 | -0.2 | -0.5 | 1 | . | 3
> ON=C1CCC2CCCCC2C1 (centres undefined)
  -8 | -4.8 | -0.2 | -3 | 0.1% | 1
> O=C(N1CCOCC1)N1CCN(c2ccc(F)cc2)CC1
  -11 | -0.6 | -0.4 | 7 | -1.0%[38.3 µM] | 33
> CCc1nc2ccc(C(=O)N(C)CC(=O)Nc3ccc(Cl)c(C(F)(F)F)c3)cc2nc1CC
  -3 | -3.3 | 0.2 | ? | -2.0% | -3

Order of values – TRPML1 inh | D2 agonist | TRPML1 agonist | Six1-Eya2 inh | PINK1 expr mod | CtBP-E1A blk
> CC(=O)Nc1cc2c(=O)n(Cc3ccccc3)c(C)nc2cc1N1CCOCC1
  37 | -0.8 | -0.2 | 6 | -0.9% | -7
> COc1ccc2[nH]c(C(=O)N3CCNCC3)cc2c1OC
  12 | 3.7 | 1.1 | -14 | 1.2% | -8
> CC(=O)c1sccc1NC(=O)c1ccccc1C(=O)O
  -6 | -2.1 | 0.2 | -1 | -0.6% | 0
> O=C(OCc1cc(=O)n2ccsc2n1)C1(c2ccccc2)CC1
  4 | 0.6 | -1.1 | 17 | 0.9% | 8
> COc1ccc(N2CCOCC2)c(NC(=O)c2cccs2)c1
  1 | -4.6 | -0.7 | 0 | 0.8% | -1
> CCCCCCNC(=O)c1c(O)c2ccccc2[nH]c1=O
  7 | 1.4 | -0.5 | 12 | 3.2% | -8
> COc1ccc2oc(C(=O)OCC(=O)NCCN3C(=O)CSC3=O)c(C)c2c1
  5 | -0.1 | 0.1 | -1 | -1.2% | 5
> Cc1c(-c2ccco2)[n+](=O)c2c(n1[O-])CCC2
  -13 | -3.4 | -0.4 | 19 | 2.7% | 27
> Cc1cccc(C)c1N1CC(=O)N(c2c(C)cccc2C)CC1=O
  12 | -1.7 | -0.2 | 6 | 7.8% | 7
> CC(=O)c1ccc(OCCCC(=O)Nc2cc(S(=O)(=O)N(C)C)ccc2C)cc1
  -11 | -4.1 | -0.4 | -1 | 0.8% | 11
> O=C(CCc1nc2ccccc2c(=O)[nH]1)Nc1ccccc1N1CCCC1
  -10 | 0.3 | -0.7 | 3 | 0.9% | -4
> O=C1NC(=O)C2(CCCC2C(=O)O)N1 (centres undefined)
  -17 | -1.1 | 0.5 | 2 | -0.7% | 0
> CN(CC(=O)Nc1cccc(F)c1)C(=O)Cn1c(=O)oc2ccccc21
  -2 | 6.5 | -0.3 | 3 | -1.6% | 4
> Cc1cc(-c2ccccc2)c2c(=O)n(-c3ccccc3)[nH]c2n1
  8 | -1.1 | 0.9 | -19 | -0.1% | -24
> COc1ccc(C(=O)N2CCN(c3ccc(F)cc3)CC2)cc1S(=O)(=O)NC1CC1
  -9 | -2.2 | -0.3 | -1 | -0.7% | .

Brought forward from above: three compounds, then new ones.
Order of values – TRPML1 inh | D2 agonist | TRPML1 agonist | Six1-Eya2 inh | PINK1 expr mod | CtBP-E1A blk
> CN(CC(=O)Nc1cccc(F)c1)C(=O)Cn1c(=O)oc2ccccc21
  -2 | 6.5 | -0.3 | 3 | -1.6% | 4
> Cc1cc(-c2ccccc2)c2c(=O)n(-c3ccccc3)[nH]c2n1
  8 | -1.1 | 0.9 | -19 | -0.1% | -24
> COc1ccc(C(=O)N2CCN(c3ccc(F)cc3)CC2)cc1S(=O)(=O)NC1CC1
  -9 | -2.2 | -0.3 | -1 | -0.7% | .
> COc1ccc(-c2csc(NC(=O)C3CCN(c4ncnc5sc(C)c(C)c45)CC3)n2)cc1OC
  18 | -1.6 | 0.4 | -14 | 2.5% | -19
> COc1ccccc1CNc1nc2nc(C)cc(=O)n2[nH]1
  ? | -0.3 | -0.3 | 8 | -2.1% | 7
> Brc1ccccc1Cn1cnc2ccccc21
  . | -2.1 | . | -5 | 0.4% | .
> Cc1nnc(SCC(=O)NCc2cccs2)n1-c1ccccc1
  -7 | -4.2 | -0.5 | 0 | -0.6% | 5
> CC1(C)O[C@@H]2[C@H](O1)[C@@H](CO)O[C@H]2n1ccc(=O)[nH]c1=O
  ? | -3.3 | -0.5 | -5 | -0.6% | 5
> Cc1nc(-c2ccc(F)cc2)c(CC(=O)NCC(=O)Nc2ccc(F)c(F)c2)s1
  -2 | -1.1 | 0.7 | 3 | 5.1% | .
> O=C(NCCNc1ccc([N+](=O)[O-])cc1C(F)(F)F)c1ccc(F)cc1
  23 | -4.5 | 1.1 | 1 | 2.5% | -1

Assay outcomes (PubChem)
